Cruzain noTriton: blocks cruzain activity in detergent-free assay; Potency, µM, inactives show max response, negative = inhibition, hits mostly inhibitors; P25779; AID 1476; purified cruzain, Z-FR-AMC fluorescence, no detergent; 200,000 tested, 2.3% active;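 further: plate controls were enzyme without inhibitor for no effect and buffer without enzyme for full effect; nearly all actives have a fitted effect of over 40% in size; top concentration of the series not given in the record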
Target sequence (P25779 123-467 limits assumed): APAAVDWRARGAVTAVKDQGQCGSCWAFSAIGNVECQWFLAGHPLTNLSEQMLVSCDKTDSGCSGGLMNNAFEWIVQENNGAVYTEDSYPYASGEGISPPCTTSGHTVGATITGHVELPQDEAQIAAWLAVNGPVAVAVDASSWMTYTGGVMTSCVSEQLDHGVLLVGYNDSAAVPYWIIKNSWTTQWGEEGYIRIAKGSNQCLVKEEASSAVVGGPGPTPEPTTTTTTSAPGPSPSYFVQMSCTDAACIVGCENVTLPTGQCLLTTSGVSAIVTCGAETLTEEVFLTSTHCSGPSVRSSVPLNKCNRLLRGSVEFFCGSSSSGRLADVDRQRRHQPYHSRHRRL
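Purified cruzain at 1.5 nM, pre-incubated 15 min with compound at room temperature in 100 mM sodium acetate pH 5.5, 5 mM DTT, 0.00005% Triton X-100. Reaction started with 2 uM Z-FR-AMC; AMC fluorescence increase over 60 s gives rate.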
Marburg entry inh: blocks Marburg virus binding to or entry into cells | Potency, µM (highest dose often 37.8 µM), for the others: at the top dose activity change, negative = inhibition, most hits filed as inhibitors | 300,000 tested, 1.8% active | AID 540276 | Marburg virus pseudotyped entry inhibition, cell reporter; control for the full effect not named in the record; about a third of the inactives were read at about 46 µM; active = well fitted inhibition curve with a large enough effect; inconclusive = small, poorly fitted or top-dose-only effect, or effect the other way; inactive = flat fitted curve, though single readings scatter; tested in HEK293 cells; about a fifth of its hits are not listed in these tables; further: on the % scale 0 is the no-effect control and ±100 the full control effect; luciferase read-out
SARS PLP yeast: SARS-CoV PLP inhibition in yeast; 330,000 tested, 0.19% active; S. cerevisiae expressing SARS-CoV PLpro, growth rescue; control for the full effect not named in the record; AID 485353; Potency, µM (titrated, usually from 32.9 µM), for inactives: at the highest dose activity, positive = growth rescue; active means well fitted rising curve with a large enough effect; inconclusive means small, poorly fitted or top-dose-only effect; inactive means no such curve, though single readings can be large or run the other way; further: 0% is about no effect; nearly all actives have a fitted effect of over 55% in size; growth read by luminescence after 48 h
Cruzain Triton: blocks cruzain activity in presence of Triton detergent; P25779; purified cruzain, Z-FR-AMC fluorescence, 0.01% Triton; Potency, µM, for inactives: max response, negative = inhibition, usual class: inhibitors; 200,000 tested, 0.43% active; AID 1478;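 further: plate controls were neutral wells for no effect and buffer without enzyme for full effect; nearly all actives have a fitted effect of over 40% in size; top concentration of the series not given in the record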
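Detergent-containing arm of a paired screen for aggregation-based inhibition: 0.01% Triton X-100 present. Cruzain at 1.5 nM cleaved 2 uM Z-FR-AMC at pH 5.5 with 5 mM DTT; AMC fluorescence gain over 60 s measured activity.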
StopGo reporter: FMDV 2A StopGo reporter, luciferase signal | Potency, µM (doses to about 57.9 µM), inactives show at the highest dose signal change, negative = less light | AID 1159524 | 410,000 tested, 1.2% active | human cells with a luciferase reporter of 2A StopGo recoding; control for the full effect not named in the record; active = well fitted falling curve with a large enough effect; inconclusive = small, poorly fitted or top-dose-only effect; inactive = no such curve, though single readings can be large or run the other way; tested in HEK293T cells; further: on the % scale 0 is the no-effect control and ±100 the full control effect; nearly all actives have a fitted effect of over 45% in size; luciferase light after 4 h
NS1 function inh: blocks influenza NS1 protein function; S. cerevisiae slowed by influenza A NS1, growth recovery by OD600; Potency, µM (series often up to 46.1 µM), inactives show top-dose activity, positive = more growth; 270,000 tested, 0.4% active; AID 2326; active means well fitted rising curve with a large enough effect; inconclusive means small, poorly fitted or top-dose-only effect; inactive means no such curve, though single readings can be large or run the other way; further: nearly all actives have a fitted effect of over 50% in size
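S. cerevisiae expressing influenza A NS1, grown in glucose, washed, then diluted 1:100 into pH 6.0 -URA galactose medium with 23 nl compound. Growth recovery read as OD600; NS1-free strain serves as control.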
LASV entry inh: blocks Lassa virus binding to or entry into cells | Lassa virus pseudotype entry inhibition, cell reporter; control for the full effect not named in the record | Potency, µM (series often up to 37.9 µM), without a hit: at the top dose activity change, negative = inhibition, actives largely listed as inhibitors | 300,000 tested, 1.2% active; active means well fitted inhibition curve with a large enough effect; inconclusive means small, poorly fitted or top-dose-only effect, or effect the other way; inactive means flat fitted curve, though single readings scatter; tested in HEK293 cells; further: on the % scale 0 is the no-effect control and ±100 the full control effect; nearly all actives have a fitted effect of over 50% in size; luciferase read-out
RE007 growth inh: less growth of the S. pombe RE007 Vpr strain. S. pombe RE007 Vpr strain, BacTiter-Glo ATP luminescence, 24 h; control for the full effect not named in the record. Potency, µM (top dose mostly 92.2 µM), for the others: at the top dose activity change, negative = less growth. 360,000 tested, 0.21% active. AID 651644; active = well fitted falling curve with a large enough effect; inconclusive = small, poorly fitted or top-dose-only effect; inactive = no such curve, though single readings can be large or run the other way;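 further: on the % scale 0 is the no-effect control and ±100 the full control effect; nearly all actives have a fitted effect of over 50% in size; the assay follows cell death caused by Vpr and the record does not say whether a fall means rescue or toxicity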
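Fission yeast strain RE007, carrying one chromosomally integrated HIV-1 vpr copy, was seeded at OD 0.01 in PMG+AL medium with 23 nL pinned compound. After 24 h at 30 °C and 99% humidity, viability was read by BacTiter-Glo luminescence.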
* marks the source's active call; other numbers are inactive results; ? = inconclusive; . = no result given; & = joins results of further samples; [ ] = remark or other dose. Unless noted, the call rests on the fitted dose curve; in most records, active means well fitted curve in the direction sought with a large enough effect; inconclusive means small, poorly fitted or top-dose-only effect, or another doubt; inactive means no such curve, though single readings can be large; an effect the other way counts as inactive or inconclusive. Potency means the concentration at half of the fitted maximal effect.

smiles,Cruzain noTriton,Marburg entry inh,SARS PLP yeast,Cruzain Triton,StopGo reporter,NS1 function inh,LASV entry inh,RE007 growth inh
O=C(Nc1ccc(Cl)cc1C(=O)c1ccccc1)c1ccccc1,-16.6%,-28.6%[46.1 µM],-10.4%,1.0%,-7.5%,-9.5%,-2.1%,-8.4%
CCCC(=O)N(c1ccc2oc(C)c(C(C)=O)c2c1)S(=O)(=O)c1ccc(C)cc1,9.4%,.,.,-5.2%,0.0%,.,?,.
Cc1cc(SCC(=O)NCc2ccccc2)nc(=O)[nH]1,11.7%,.,.,-1.3%,-4.7%,.,-10.9%[46.1 µM],.
CC1=C(C(=O)OCC2CCCO2)C(c2ccc(C)o2)C2=C(CC(c3ccc(N(C)C)cc3)CC2=O)N1 (configuration not stated),28.0%,-3.9%,2.7%,-6.8%,.,-34.2%,.,.
CCN(CC)c1ccc(/C=N/n2c(=S)[nH]nc(C)c2=O)cc1,-13.5%,6.5%,8.0%,-8.2%,14.4%,-17.7%,-2.5%,20.9%
Cc1cc(F)ccc1NC(=O)C1CCN(S(=O)(=O)c2ccc3c(c2)CCCC(=O)N3)CC1,-9.4%,2.4%&2.4%[46.1 µM],-4.0%,-0.9%,-21.3%&-4.0%,3.6%,-5.1%&1.7%[46.1 µM],-1.0%
Cc1ccc(S(=O)(=O)Nc2cc(S(=O)(=O)N3CCOCC3)ccc2NCC2CCCO2)cc1 (configuration not stated),.,?,20.7%,.,75.2%[activator],.,6.5%,0.5%
CC(=O)OCC1=C(C(=O)O)N2C(=O)C(NC(=O)COc3ccc(F)cc3)C2SC1 (configuration not stated),.,10.4%[46.1 µM],-1.2%,.,-15.6%,.,13.6%,11.6%
CC(C)Sc1nc2c(c(=O)[nH]c(=O)n2C)n1CC(O)COc1ccccc1 (configuration not stated),.,-21.7%[46.1 µM],-2.8%,.,-25.9%,.,?,-5.3%
O=C(c1ccco1)N1CCN(C(=S)Nc2ccccc2C(F)(F)F)CC1,.,?,-5.4%,.,-19.8%,-0.1%,?,0.7%
O=C(CSc1nnc(CNc2ccc(F)cc2)n1Cc1ccco1)N1CCCC1,2.0%,-6.2%,-7.3%,2.5%,0.9%,-6.2%,-11.0%,4.7%
COc1ccc(CNC(=O)Cn2c(=O)n(CCC(=O)N3CCCCC3)c(=O)c3sccc32)cc1,.,.,-2.9%,.,-16.5%,6.7%,.,-5.6%
CCCCCc1nnc(N)s1,4.4%,-4.4%,-1.0%,2.9%,21.5%,-0.5%,0.5%,9.2%
Cc1ccc(NC(=O)NCc2ccc3c(c2)CCN3C(=O)c2ccccc2)c(Cl)c1,-22.5%,.,.,-4.3%,?,.,-13.0%[46.1 µM],.
CCC(c1nnnn1Cc1ccc2c(c1)OCO2)N1CCN(c2ccc(OC)cc2)CC1 (configuration not stated),4.9%,6.4%,-3.2%,-0.3%,-21.1%,-40.2%,3.6%,39.1%
CCN(Cc1ccccc1)C(=O)Cn1c(=O)oc2ccccc21,.,-2.3%[14.2 µM],-1.6%,.,-2.6%,.,?,0.9%
CCN(CC)C(=O)CSc1nc(N)c(C#N)c(-c2cccs2)c1C#N,-17.1%,?,2.2%,-2.1%,-18.8%,3.2%,-24.0%,15.9%
OCc1nc2ccccc2n1CC(O)COc1ccccc1 (configuration not stated),4.3%,-4.5%,-2.7%,-0.7%,-18.4%,-4.0%,5.3%,-0.9%
COCCNc1nc2c(c(=O)n(C)c(=O)n2C)n1Cc1cccc(C(F)(F)F)c1,12.2%,?,1.2%,1.4%,?,-4.4%,?,-3.6%
COc1ccc(-c2cc(-c3cccnc3)c(C#N)c(N)n2)cc1,.,11.0%[46.1 µM],-7.1%,.,-18.2%,3.9%,-18.7%[46.1 µM],3.7%
CN(Cc1cccc(Cl)c1)C(=O)C1CCN(C(=O)Nc2ccccc2)CC1,.,?,-1.5%,.,2.8%,.,?,2.1%
c1coc(-c2nc3c([nH]2)CCc2nonc2-3)c1,2.4%,9.0%,1.7%,-3.7%,.,0.3%,4.4%,-5.6%
O=S(=O)(NC1=NCCCCC1)c1ccc(Cl)cc1,.,28.4%[46.1 µM],2.0%,.,20.3%,.,.,5.2%
CCN1C(=O)c2cccc3c(S(=O)(=O)NCc4ccco4)ccc1c23,-6.7%,-24.3%,2.2%,-5.7%,66.5%[activator],-3.8%,1.2%,-12.1%
CC(C)NC(=O)CN(C)S(=O)(=O)c1ccc(F)cc1,1.4%,0.2%,8.1%,-0.8%,27.8%,-6.1%,-0.3%,10.8%
COc1ccc(/C=C/C(=O)NCCc2ccc(OC)c(OC)c2)cc1,-2.9%,2.7%,-10.8%,0.0%,?,-11.7%,29.2%,6.4%
O=C(COC(=O)C1CC1)Nc1ccc2[nH]c(=O)[nH]c2c1,.,.,0.7%,.,-5.4%,7.7%,.,1.8%
CCCCNC(=O)CCC(=O)N1CCN(C(c2ccccc2)c2ccccc2)CC1,.,.,-6.1%,.,-6.1%,-8.5%,.,2.6%
O=C(Nc1ccccc1C(=O)Nc1ccccc1C(=O)O)c1ccccc1,.,?,-7.1%,.,0.0%,4.5%,?,-1.5%
Clc1ccc(CNC23CN4CN(CN(C4)C2)C3)c(Cl)c1,-18.1%,13.0%,?,-1.1%,-20.4%,-0.1%,22.2%,4.7%

Filtered by structure: the entries above with a thiophene ring, fused or not
smiles,Cruzain noTriton,Marburg entry inh,SARS PLP yeast,Cruzain Triton,StopGo reporter,NS1 function inh,LASV entry inh,RE007 growth inh
COc1ccc(CNC(=O)Cn2c(=O)n(CCC(=O)N3CCCCC3)c(=O)c3sccc32)cc1,.,.,-2.9%,.,-16.5%,6.7%,.,-5.6%
CCN(CC)C(=O)CSc1nc(N)c(C#N)c(-c2cccs2)c1C#N,-17.1%,?,2.2%,-2.1%,-18.8%,3.2%,-24.0%,15.9%

(more compounds)
smiles,Cruzain noTriton,Marburg entry inh,SARS PLP yeast,Cruzain Triton,StopGo reporter,NS1 function inh,LASV entry inh,RE007 growth inh
CC(=O)c1c(COC(=O)c2ccccc2)nc2ccccc2[n+]1[O-],-13.9%,15.1%,-7.4%,-3.3%,-19.8%,4.7%,18.2%,-0.5%
CC(=O)Nc1c(Cl)cc2c(c1Cl)Cc1cc(C#N)ccc1-2,.,-19.8%,.,.,8.6%,.,0.5%[46.1 µM],-4.8%
CN(C)Cc1cc(C(C)(C)c2cc(CN(C)C)c(O)c(CN(C)C)c2)cc(CN(C)C)c1O,-9.3%,11.6µM*,12.6µM*,-0.5%,11.9%,2.7%,?,4.5%
O=c1[nH]c(-c2ccc(F)cc2)nc2c1sc(=S)n2-c1ccccc1,?,0.6%[46.1 µM],-9.6%,-3.5%,?,1.5%,-20.4%[46.1 µM],16.0%
O=C(Nc1cccnc1)c1ccc(Oc2ccccc2)cc1,3.2%,14.1%,-14.9%,-5.5%,-16.6%,-39.5%,?,-7.9%
O=S(=O)(c1ccccc1)N1CCN(c2ccnc3cc(Cl)ccc23)CC1,.,?,-2.9%,.,25.1µM*,-7.4%,?,-17.3%
CCCN(C(=O)c1coc(=O)c2ccccc12)c1ccccc1C,-1.3%,?,.,-2.5%,-1.8%,.,?,.
COc1ccc(NC(=O)c2ccc([N+](=O)[O-])o2)cc1,.,11.2µM*,8.0%,.,6.9%,-62.1%,-5.5%[46.1 µM],?
CCN(CC)S(=O)(=O)c1ccc(C(=O)OCn2c(SC)nnc(C)c2=O)cc1,-7.0%,5.1%,8.0%,-1.5%,-0.3%,-1.5%,7.3%,-10.2%
Cc1nc2ccccc2c2c1C(=O)N(C(C)C)C2=O,?,-43.4%,-2.8%,-0.9%,.,?,-6.8%,-21.6%
O=C(NNC(=O)c1ccc2ccccc2c1)c1ccc(Cl)c(Cl)c1,.,0.7%[46.1 µM],.,.,3.6%,.,-0.2%[46.1 µM],3.6%
COCCOC(=O)c1c(C)oc2cc(Br)c(OCC(N)=O)cc12,29.0%,-1.3%,14.9%,-7.4%,-12.9%,-1.7%,6.7%,17.1%
CC(C)c1ccc(-c2nnn(Cc3nc4ccccc4s3)n2)cc1,-10.3%,-40.7%,-4.9%,-2.3%,13.5%,1.9%,?,-15.8%
O=C(C=Cc1ccc2c(c1)OCO2)c1ccccc1,.,?,.,.,29.0%,.,?,?
Cc1ccc(OCC(=O)N2CCN(S(=O)(=O)c3ccc(Cl)cc3)CC2)c([N+](=O)[O-])n1,28.4%,6.1%,21.9%,-3.8%,-21.0%,-5.1%,2.5%,-4.5%
Cc1cc(C)cc(NC(=O)C(c2ccccc2)N2CCCC2)c1 (configuration not stated),-5.4%,?,-1.7%,-0.7%,-20.2%,1.2%,?,-9.6%
CN(C)c1ccc(/C=N/n2c(-c3ccccc3Br)n[nH]c2=S)cc1,.,2.4%[46.1 µM],0.6%,.,20.8%,14.7%,-24.7%[46.1 µM],-5.6%
O=C(NCc1ccccn1)c1cc(-c2ccccc2)on1,0.4%,?,-3.5%,2.7%,.,-6.6%,?,-23.8%

In the list so far, 3 contain a cyano group.
smiles,Cruzain noTriton,Marburg entry inh,SARS PLP yeast,Cruzain Triton,StopGo reporter,NS1 function inh,LASV entry inh,RE007 growth inh
CCN(CC)C(=O)CSc1nc(N)c(C#N)c(-c2cccs2)c1C#N,-17.1%,?,2.2%,-2.1%,-18.8%,3.2%,-24.0%,15.9%
COc1ccc(-c2cc(-c3cccnc3)c(C#N)c(N)n2)cc1,.,11.0%[46.1 µM],-7.1%,.,-18.2%,3.9%,-18.7%[46.1 µM],3.7%
CC(=O)Nc1c(Cl)cc2c(c1Cl)Cc1cc(C#N)ccc1-2,.,-19.8%,.,.,8.6%,.,0.5%[46.1 µM],-4.8%

Screening data: PubChem BioAssay, National Center for Advancing Translational Sciences (NCATS)
